Bioassay records deposited in PubChem BioAssay by Broad Institute.
Tgondii IFNg: inhibitors of Toxoplasma gondii growth with IFN-gamma; activity change, negative = inhibition, %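 (about 20 µM by stock and volumes)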; hit rate 3.8% among 69,000; Toxoplasma gondii growth in IFN-gamma-treated host cells; active compounds read low; reference of the scale not given here;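 active = below -70%; inconclusive = fit judged invalid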;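 also: host cells are HeLa cells infected with Toxoplasma gondii; parasite growth read as luciferase light; one replicate is shown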
* marks the source's active call; other numbers are inactive results; ? = inconclusive; & = joins results of further samples. The list is partial, so the mix of outcomes need not match the whole.

Molecule	Tgondii IFNg
Cc1cccc(NC(=O)c2ccnn2-c2ccc3ccccn23)c1	-9
CN(C)C(=O)NC1COC2(CCN(S(=O)(=O)c3ccccc3)CC2)C1 (stereo not given)	34
N#Cc1c(-c2ccccc2)nc(SCc2ccccc2)[nH]c1=O	15
COC(=O)[C@H]1[C@H]2C[C@@H]3c4[nH]c5ccccc5c4CCN3C[C@H]2C[C@@H](OC(=O)c2cc(OC)c(OC)c(OC)c2)[C@@H]1OC	-13
Cc1noc(CSCC(=O)Nc2ccnn2C(C)C(C)C)n1 (stereo not given)	75
Cc1cc(OCn2ccc(C(=O)O)n2)ccc1Cl	28
CCCN1C[C@H](C)[C@H](OC)CN(C)C(=O)c2cc(NS(=O)(=O)c3ccccc3)ccc2OC[C@@H]1C	-17
N[C@@H]1CCN(O)C1=O	13
O=C1[C@@H]2CN(c3ccccn3)C[C@@H]2CN1Cc1cccc(F)c1	-2
O=C(Cc1ccccc1)N1C[C@H]2[C@@H](c3ccccc31)[C@H](CO)N2S(=O)(=O)c1ccccc1	-3
Cc1ccc(S(=O)(=O)N[C@@H]2C=C[C@H](CC(=O)NCc3ccc(Cl)c(Cl)c3)O[C@@H]2CO)cc1	-11
O=C(NC[C@@H]1[C@@H](c2ccccc2)[C@@H](CO)N1Cc1ccccn1)C1CCCC1	11
O=C(CCc1ccccc1)Nc1cccc2nonc12	13
C[C@@H]1CCCCO[C@H](CN(C)CC2CCCCC2)[C@H](C)CN([C@@H](C)CO)C(=O)c2cc(NC(=O)Nc3ccc(C(F)(F)F)cc3)ccc2O1	?
C=C/C=C(\C(C)=C(C)C)N(C(=O)NCc1ccccc1)C1=NCCCS1	12
COc1cc(N2CCc3ncnc(C)c3CC2)ncn1	28
Cc1ccccc1-c1cc(O)c2c(c1)CN(Cc1cn(C)nc1C)CCO2	1
COc1ccc(-c2nc(C)c(CCNC(=O)C(=O)Nc3ccccc3F)s2)cc1OC	65
COc1ccc(S(=O)(=O)N2CCc3nc(-c4ccccc4)sc3C2)cc1OC	62
CCc1ccc(NC(=O)Cn2c(=O)cc(C(=O)NC)c3ccccc32)cc1	-1
CCCc1nc(N2CC(OCc3ccccc3)C2)c2cnn(C)c2n1	-54
N#Cc1ccc(N2CCC3(CC2)CC(Oc2cccnc2)CO3)cc1 (stereo not given)	-51
Cc1cccc(C(=O)N2CCC(N3CCCC(C(=O)N4CCOCC4)C3)CC2)n1 (stereo not given)	-8
COc1ccc(C(=O)NCCc2sc(-c3cccc(F)c3)nc2C)cc1	-24
COc1ccc([C@H]2CC=CC[C@@H](C)Oc3ccccc3C(=O)N(C)[C@H](Cc3ccccc3)C(=O)N2)c(OC)c1 (mixture of isomers)	-79*
CCOC(=O)c1[nH]ncc1-c1cncn1CCc1ccc2c(c1)OCCO2	-11
COc1ccccc1-c1nc(C)c(-c2ccc(SCc3cc(C)ccc3C)nn2)s1	0
CN1CCC(Cc2noc(-c3nn(C)c4c3CCCC4)n2)CC1	-3
Cc1[nH]c2ccc(CNC(=O)C3CCCN(Cc4ccco4)C3)cc2c1C (stereo not given)	-1
CCN1CCC2(CC1)OC(=O)C(C)=C2C(=O)Nc1ccccc1C(F)(F)F	31

Copied from the list:
For Tgondii IFNg, Cc1ccccc1-c1cc(O)c2c(c1)CN(Cc1cn(C)nc1C)CCO2 is listed with 1
For Tgondii IFNg, O=C(NC[C@@H]1[C@@H](c2ccccc2)[C@@H](CO)N1Cc1ccccn1)C1CCCC1 is listed with 11
For Tgondii IFNg, Cc1cccc(C(=O)N2CCC(N3CCCC(C(=O)N4CCOCC4)C3)CC2)n1 (stereo not given) is listed with -8
For Tgondii IFNg, C=C/C=C(\C(C)=C(C)C)N(C(=O)NCc1ccccc1)C1=NCCCS1 is listed with 12
For Tgondii IFNg, COc1cc(N2CCc3ncnc(C)c3CC2)ncn1 is listed with 28
For Tgondii IFNg, CCOC(=O)c1[nH]ncc1-c1cncn1CCc1ccc2c(c1)OCCO2 is listed with -11

3 compounds picked at random from those above, as already listed:
Molecule	Tgondii IFNg
Cc1cccc(C(=O)N2CCC(N3CCCC(C(=O)N4CCOCC4)C3)CC2)n1 (stereo not given)	-8
COc1ccccc1-c1nc(C)c(-c2ccc(SCc3cc(C)ccc3C)nn2)s1	0
CCOC(=O)c1[nH]ncc1-c1cncn1CCc1ccc2c(c1)OCCO2	-11

(more compounds)
Molecule	Tgondii IFNg
CN(C)S(=O)(=O)N1Cc2cncn2CC(COCC2CCC2)C1 (stereo not given)	2
Cc1nc(Nc2ccccn2)cc(C2CCCN2)n1 (stereo not given)	91
Cc1ccc2c(n1)N(CC1CC1)CCN(C(=O)c1cscn1)C2	-23
COc1ccc(-c2oc3ccccc3c(=O)c2O)cc1OC	36
O=C(NC(Sc1ncccn1)C(=O)c1ccccc1)c1ccccc1 (stereo not given)	176
CCn1nnc(NC(=O)c2cccc3ccccc23)n1	124
CN(C)C(=O)c1cccc(-c2ccc3c(c2)[C@@H]2[C@@H](CCN2C(=O)Nc2ccc(F)cc2)[C@H](CO)N3C)c1	-13
CN(C)C(=O)CN1CCn2cc(Cn3cncn3)nc2C1	0
CNC(=O)COc1ccc(-c2cccc(-n3cccn3)c2)cc1	12
COCC1CCCN(C(=O)c2ccc(-c3cc4ccccc4nc3OC)nc2)C1 (stereo not given)	-12

Two entries from above, set out differently:
CN1CCC(Cc2noc(-c3nn(C)c4c3CCCC4)n2)CC1
  Tgondii IFNg = -3

O=C(NC[C@@H]1[C@@H](c2ccccc2)[C@@H](CO)N1Cc1ccccn1)C1CCCC1
  Tgondii IFNg = 11

Next section
Molecule	Tgondii IFNg
CC(NC(=O)CCc1c[nH]c2ccccc12)c1cn2ncsc2n1 (stereo not given)	23
CC(C)C#Cc1ccc([C@@H]2[C@@H](CO)N3C(=O)CN(C(=O)NC4CCCC4)C[C@H]23)cc1	-40
Cc1cccc(CNC2=NCCNC23CCN(S(=O)(=O)c2ccc(Cl)s2)CC3)c1	-8
CC(Cc1cccs1)Nc1nc(-c2cccnc2)nc2c1cnn2C (stereo not given)	-44
CCc1ccccc1S(=O)(=O)N1CCc2nc(CNC(=O)C3CCC3)n(C)c2C1	-84*
C=CCNC(=O)N1CC(Oc2ccc(Cl)cc2)C1	-18
CCOC(=O)N1CCN(Cc2ccc3c(c2)CN(C(=O)c2noc4c2CCCC4)CCO3)CC1	-7
CC(C)N(C)Cc1nnc2n1CCN(C(=O)N(C)C)CC2	34
C[C@@H]1CN([C@@H](C)CO)C(=O)CCCn2nncc2CO[C@@H]1CN(C)Cc1ccccc1C(=O)O	210
CCOC(=O)c1nc(N2CCN(c3cccc(Cl)c3)CC2)c2ccccc2n1	-29

Other compounds follow.
Molecule,Tgondii IFNg
CCOC(=O)[C@H](CCc1ccccc1)N[C@H](C)C(=O)N1C2CCCCC2C[C@H]1C(=O)O (stereo not given in full),15&13
Cc1c(NCc2cccnc2)cccc1C(=O)NCc1cccc2[nH]ccc12,-18
COc1cc2c(cc1CCNS(=O)(=O)c1c(C)nn(C)c1Cl)CCC2,58
CCc1nccn1CC(C)C(=O)N1CCN(C(=O)c2cccc(F)c2)CC1 (stereo not given),-33
COc1ccc(N2CSCc3nc4ccccc4n3C2)cc1,186
CCc1ccc(S(=O)(=O)NCCc2sc(-c3ccccc3)nc2C)s1,84
O=C(c1ccccc1F)N1CCc2c([nH]c3ccccc23)C1c1ccccc1 (stereo not given),39
O=C(Nc1ccc(F)cc1)N1C[C@@H]2[C@H](c3ccccc31)[C@@H](CO)N2Cc1ccccc1Cl,6
CCCN1C(=O)SC(CC(=O)Nc2ccc(OCC)cc2)C1=O (stereo not given),4
COCC(=O)N1CC[C@@H]2CO[C@H](CN3CCN(C)CC3)[C@@H]2C1,-4
Cc1nc(SCC(=O)c2cc3c(ccc4ccccc43)oc2=O)c(C#N)c(C)c1C,155
Cn1cnc(S(=O)(=O)N2C[C@@H](O)COC[C@H]3O[C@H](CC(=O)NCc4cccc(F)c4)CC[C@@H]32)c1,20
O=C(CCc1c[nH]c2ccccc12)NCc1ccco1,-5
Cc1c(C(=O)NCCS(=O)(=O)c2ccc(F)cc2)cccc1N1CCOCC1,4
Cc1nccn1-c1ccc(CNC(=O)c2c(O)cccc2O)cc1,-4
Cc1cccc(-n2c(CCc3nc4ccccc4[nH]3)n[nH]c2=O)c1,2
COC(=O)[C@@H]1C[C@@H](N(C)C)CN1C(=O)c1cc2ccccn2n1,-6
Cc1cc(C)c(C(=O)N2CCC3(C=Cc4ccccc43)CC2)c(=O)[nH]1,16
Cc1nn(CCNC(=O)C2CC(=O)N(Cc3ccccn3)C2)c(C)c1Cl (stereo not given),-2
COCC(=O)N1CC2(C1)CN(C(=O)Nc1ccccc1F)[C@@H](CO)c1[nH]c3cc(OC)ccc3c12,34
Nc1ccccc1SCc1ncc(C(F)(F)F)cc1Cl,33
COc1cc2c(cc1OC)C(C)N(Cc1nc(-c3ccco3)oc1C)CC2 (stereo not given),2
CCNC(=O)[C@@H]1C[C@@H](N)CN1C(=O)c1ccc(Cn2ccc3ccccc32)o1,-1
O=C(Nc1ccc(F)cc1)N1CC(=O)N2[C@H](CO)[C@H](c3ccc(-c4cccc(F)c4)cc3)[C@H]2C1,-39
CN(CC(=O)N1CCN2C(=O)CN(C)C(=O)C2C1)Cc1ccc(F)cc1 (stereo not given),5
Cc1nc(C(C)C)sc1C(=O)N(C)Cc1cc(C(C)C)on1,33
CC(C)Cn1cnc2nnc3ccc(C(=O)Cc4ccccn4)cc3c21,-24
O=S(=O)(c1ccc2c(c1)CCCC2)N1CCC2(CC1)NCCN=C2NC1CCCCCC1,-37
CCOc1ccc(C(=O)C2CCN(CC(=O)NCc3cccs3)CC2)cc1,-40
CC1(C)CC(=O)C=C(C(=O)Nc2ccccc2C(=O)N2CCCCCC2)O1,8
COc1ccccc1CNc1nc(C(C)(C)C)nc2c1cnn2C,-22
Cn1c(=O)n(C)c2cc(NC(=O)CSc3ncc(C#N)c(N)n3)ccc21,50
CO[C@H]1CN(C)C(=O)c2ccc(NC(=O)NC(C)C)cc2OC[C@H](C)N(Cc2ccc(-c3ccccn3)cc2)C[C@H]1C,-18
Cc1cccc(CN2CCN(Cc3ccc(-c4ccccn4)cc3)CC2)c1,-4
Cc1ocnc1C(=O)N1CCc2[nH]nc(-c3ccc(-c4ccccc4)cc3)c2C1,-66
Cc1n[nH]c(C)c1C(=O)N1CCC(c2n[nH]c(=O)n2-c2ccccc2)CC1,-51
C/C=C/c1ccc([C@H]2[C@@H](CO)N(CC3CCOCC3)C23CN(C(=O)COC)C3)cc1,-2
O=C(NC1CCCCCCC1)C1CC(=O)N(CCc2c[nH]c3ccc(F)cc23)C1 (stereo not given),21
CN(C)c1cccc2c1c(NC(=O)c1cc(Cl)sc1Cl)nn2C,175
COc1ccc(CCNC(=S)N2CCC(c3nc4ccccc4o3)CC2)cc1OC,-24
COCCO[C@H]1CCN(CC2CC2)[C@@H]1Cc1cccnc1,-40
COCC(=O)N1CC[C@@H]2OCC[C@@]2(c2nc(C)no2)C1,354
CN1CCOc2cc(C(=O)N3CCN(C)C(C(=O)O)C3)ccc21 (stereo not given),0
COc1ccc(CCNC(=O)c2ccco2)cc1OC,-18
CN(C)c1ccc(CN2CCCC(OCc3cccnc3)C2)cn1 (stereo not given),-2
Cc1ccc(C)c(NC(=O)CN2C(=O)CCc3cc(S(=O)(=O)N4CCC(C)CC4)ccc32)c1,3
COc1ccc([C@H]2C/C=C\C[C@H](c3ccc(F)cc3)NC(=O)CCC(=O)N2)c(OC)c1,18
C[C@@H]1CCn2cc(nn2)COC[C@@H](c2ccccc2)NC1=O,-22
CCc1cccc2c(CC(=O)Nc3nc(C(C)=O)cs3)c(C)[nH]c12,155
COc1cc(C)c2c(c1)C=CC1C2CCC2(C)C(O)CCC12 (stereo not given),25
CCCc1nc(C(=O)NCc2cnn3ccccc23)cs1,233
CCn1c(C2CCNCC2)nn(Cc2nccc(OC)c2OC)c1=O,-3
C[C@@H]1CN([C@H](C)CO)C(=O)c2cccc(NC(=O)C3CCOCC3)c2O[C@H]1CN(C)C(=O)Nc1cccc2ccccc12,10
CC(C)c1cc(C2CCN(C(=O)[C@@]34CC[C@@](C)(OC3=O)C4(C)C)CC2)[nH]n1,-4
CCOC(=O)N1CCC(NC(=O)c2oc3ccc4c(c3c2C)C(O)CC2(CCCCC2)O4)CC1 (stereo not given),-95*
C[C@@H]1CN([C@@H](C)CO)C(=O)CCCn2nncc2CO[C@H]1CN(C)Cc1cccc(C(F)(F)F)c1,3
COCC1c2c(cnn2CC2CC2)CCN1C(=O)Cc1ccccc1 (stereo not given),211
CN(C)S(=O)(=O)N1CCO[C@H]2[C@@H](OCc3cccnc3)CC[C@H]21,2
CN(C)C(=O)c1ccc(-c2ccc3c(c2)[C@H]2[C@H](CCN2C(=O)C2CCCC2)[C@@H](CO)N3C)cc1,-66
OC1(c2ccc(Cl)c(Cl)c2)CSc2nc3cc(C(F)(F)F)ccc3n21 (stereo not given),-84*

Further structures
Molecule,Tgondii IFNg
CCOC(=O)c1sc(-n2cccc2)nc1C,9
C=CCn1cc(-c2c(-c3ccccc3)ncn2CC(O)c2ccccc2)cn1 (stereo not given),-52
COC(=O)c1nnc2c(-c3ccc(Cl)cc3)c(C)nn2c1C,-7
CC(=O)NC1(c2ccc(F)cc2)CCN(Cc2ccc(Oc3ncccn3)cc2)CC1,9
Cc1cccc(CNC2=NCCNC23CCN(S(=O)(=O)c2ccc(CC(C)C)cc2)CC3)c1,-63
CO[C@@H](CN(C)S(=O)(=O)c1ccc(C)cc1)[C@H](C)CN(C(=O)Nc1ccccc1F)[C@@H](C)CO,24
COC(=O)c1cccc(-n2nnnc2SCC(=O)Nc2ccc(F)cc2)c1,-1
CCn1cncc1CNC(=O)c1cnn2cc(C)cnc12,0
Cc1cc(=O)[nH]c(SCc2nnnn2-c2ccc(Cl)cc2)n1,0
COc1ccc(C(=O)COC(=O)CCn2nnc(-c3ccc(C(C)C)cc3)n2)cc1,-10
